Screening data deposited in PubChem by several laboratories.
INS promoter inh: TRM-6 insulin promoter activity inhibition; hit rate 0.9% among 130,000; inhibition, % at 2 µM; TRM-6 cells (human fetal islet line), insulin promoter-eGFP reporter, imaging; reporter expression induced with tamoxifen; AID 1273;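 active means inhibition above the mean plus 3 SD, with well images judged a real hit on visual review, cut at about 60% in these data, passing the limit was not always enough; inconclusive means inhibition over the cutoff but images rejected on review; inactive means inhibition not above the cutoff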
RGS16-Gao HTS: RGS16-Galphao interaction regulator (human); bead-based flow cytometry RGS16-Galphao binding, fluorescence; actives lie on both sides; binding response (% of control), % at 10 µM; hit rate 0.38% among 220,000; AID 1441;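 active means below 25% or above 175%, edge rows of some plates excepted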;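 further: Galphao activated by GDP with aluminum fluoride before binding; 100% = wells without compound and 0% = beads without RGS; some results beyond the cut were filed as inactive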
Target sequence (O15492 whole entry, looked up): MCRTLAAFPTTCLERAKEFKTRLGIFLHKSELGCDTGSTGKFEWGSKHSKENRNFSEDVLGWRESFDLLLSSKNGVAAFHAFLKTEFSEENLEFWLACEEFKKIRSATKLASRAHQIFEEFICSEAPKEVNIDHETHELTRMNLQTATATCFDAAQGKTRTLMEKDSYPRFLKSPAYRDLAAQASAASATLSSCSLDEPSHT
Target sequence (P09471 whole entry, looked up): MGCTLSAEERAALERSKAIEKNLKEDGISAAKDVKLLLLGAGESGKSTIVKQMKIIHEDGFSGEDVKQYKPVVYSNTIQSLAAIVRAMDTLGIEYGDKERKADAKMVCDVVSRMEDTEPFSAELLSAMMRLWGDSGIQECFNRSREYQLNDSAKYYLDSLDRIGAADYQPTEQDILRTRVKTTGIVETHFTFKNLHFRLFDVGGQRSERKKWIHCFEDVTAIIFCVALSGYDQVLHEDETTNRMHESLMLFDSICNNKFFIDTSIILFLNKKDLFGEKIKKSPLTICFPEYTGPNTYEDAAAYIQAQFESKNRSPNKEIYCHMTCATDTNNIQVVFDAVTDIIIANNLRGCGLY
HSV replic up: HSV replication enhancement | HSV replication augmentation in cells, fold increase | maximum fold increase | AID 1956 | hit rate 0.005% among 220,000;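 active means peak rise of 1.5-fold or more in the series; inconclusive means self-fluorescent or not available for retest; tested in PC3 cells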;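 further: first round at 10 µM; read as green reporter fluorescence; hits show the peak of a series up to 25 µM; 1 = signal of infected wells without compound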
PKD1 kinase inh: PKD1 (human) kinase inhibition; Q15139; PKD1 kinase fluorescence polarization assay; inhibition, %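 (about 10 µM by stock and volumes)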; hit rate 0.056% among 200,000;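 active means inhibition of 50% or more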;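 further: controls were vehicle for no effect and a reference inhibitor for full effect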
GALR2 ag: activates the human galanin receptor 2; activation, %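 (tested at 5 µM)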; AID 803; GALR2-expressing cells, agonist activation read-out; hit rate 0.48% among 140,000; O43603;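 active means above mean plus 3 SD of all compounds, about 5% in these data, not always enough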;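 further: 0% = vehicle buffer wells and 100% = reference agonist at full effect; tested in CHO reporter cells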
Target sequence (O43603 whole entry, looked up): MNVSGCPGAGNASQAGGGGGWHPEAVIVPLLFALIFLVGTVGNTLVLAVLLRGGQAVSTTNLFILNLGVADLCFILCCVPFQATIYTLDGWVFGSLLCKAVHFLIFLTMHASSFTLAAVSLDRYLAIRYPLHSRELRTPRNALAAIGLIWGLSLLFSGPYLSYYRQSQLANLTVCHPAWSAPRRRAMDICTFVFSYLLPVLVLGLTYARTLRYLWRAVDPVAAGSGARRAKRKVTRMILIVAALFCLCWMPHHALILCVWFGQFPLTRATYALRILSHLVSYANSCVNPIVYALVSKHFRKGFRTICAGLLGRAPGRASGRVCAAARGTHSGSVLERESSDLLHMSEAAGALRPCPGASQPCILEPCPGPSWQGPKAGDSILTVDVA
INS promoter inh cell count: second read-out of INS promoter inh, no call of its own (marks repeat the call); normalized cell count, %; measured here: cell count, toxicity; reference of the scale not given here;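 cells exposed to compound for 48 h; stained nuclei by imaging scaled within each plate; lower means fewer cells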
HSV replic up primary fold: also measured in HSV replic up; calls as there; fold increase; compound at 10 µM; measured here: primary screen fold increase 10 uM; tested in PC3 cells;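 GFP signal in the first replicate; 1 = infected wells without compound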
Starred values were filed as active, the others as inactive; i = inactive; ? = inconclusive; nt = no result given.

SMILES	INS promoter inh	INS promoter inh cell count	RGS16-Gao HTS	HSV replic up	HSV replic up primary fold	PKD1 kinase inh	GALR2 ag
COc1ccc(NC(=O)COC(=O)Cn2nnc3ccccc32)cc1	nt	nt	98	i	0.92	2	nt
O=C(O)COc1ccc(Br)cc1/C=C1/SC(=O)N(CC(=O)N2CCCC2)C1=O	3	59	100	i	1	-5	-0.9
CCCn1c(=O)c(C(=O)OCC)c(O)c2cc(Br)ccc21	-113	75	99	i	1.1	-1	nt
COc1ccc(/C=C2/SC(=O)N(CCNC(=O)C3COc4ccccc4O3)C2=O)cc1 (configuration not stated)	nt	nt	169	i	1.1	12	-1.6
CC1(c2ccccc2Cl)NC(=O)N(CC(=O)NC(=O)NCc2ccco2)C1=O (configuration not stated)	nt	nt	111	i	0.73	-7	-1.2
COc1cccc(C2CC(c3cccs3)=NN2C(=S)Nc2ccccc2)c1OC (configuration not stated)	46	81	81	i	0.92	-12	-4.5
CN(C(=O)Cc1c(C(=O)O)n(C)c2ccccc12)c1ccc(F)cc1	nt	nt	106	i	1.1	-1	nt
CCc1nnc(NS(=O)(=O)c2ccc(NC(=O)OC)cc2)s1	-11	97	99	i	0.91	-11	-1.3
O=C(CSc1nnc(CNC(=O)c2cccs2)o1)Nc1cccc(C(F)(F)F)c1	31	130	99	i	0.93	-2	-1.2
COc1ccc(C)cc1NC(=O)c1cc2cc3ccc(C)cc3nc2o1	-42	100	98	i	0.99	-4	-0.1
C(=N\Nc1ccccn1)/c1ccc2c(c1)OCCO2	43	97	109	i	1	2	nt
CCn1nc(C(=O)OCc2cccc(S(=O)(=O)N(C)C)c2)c2ccccc2c1=O	nt	nt	99	i	0.96	nt	nt
COCCNC(=O)C(=O)NCCN1CCOCC1	-494	53	107	i	0.81	-8	-0.6
O=C1C=C(NCc2ccco2)CCC1	nt	nt	100	i	1.1	-8	-1.3
C=CCn1c(SCC(=O)NC2CCS(=O)(=O)C2)nc2scc(C3CC3)c2c1=O (configuration not stated)	nt	nt	97	i	0.81	-13	-1.0
CSc1nnc(-c2cc3c(s2)-c2ccccc2CC3)o1	7	93	108	i	0.95	-11	0.1
COc1ccccc1-n1c(SCC(=O)Nc2ccc(C)cc2)nc(O)cc1=O	14	137	109	i	1.3	-5	-0.1
Cc1[nH]c(=O)c(C#N)c(C)c1[N+](=O)[O-]	nt	nt	95	i	1	nt	nt
FC(F)(F)c1ccc(Cl)c(-n2c(Cc3cccs3)n[nH]c2=S)c1	nt	nt	97	i	0.93	nt	nt
COc1ccc2c(c1)C(SCC(=O)NCCc1ccc(Cl)cc1)CC(C)(C)O2 (configuration not stated)	-50	120	98	nt	nt	-4	-0.1
CCOC(=O)c1c(C)sc(Sc2ccc(Cl)cc2[N+](=O)[O-])c1OC	-55	185	84	i	1.1	-2	-2.5
C=CCc1ccc(OCCCCNC2CCCC2)c(OC)c1	nt	nt	98	i	0.86	4	nt
O=C(CSc1nnnn1-c1ccc(O)cc1)c1ccc(F)cc1	nt	nt	98	i	0.98	nt	nt
O=C(Nc1ccc(N2CCCC2)cc1)c1ccccc1F	-36	122	99	i	1	-10	-0.8
COc1ccc(C(=O)NCC(=O)NCC(c2ccco2)N(C)C)cc1OC (configuration not stated)	nt	nt	150	i	0.96	-11	-0.2

Continuation:
SMILES	INS promoter inh	INS promoter inh cell count	RGS16-Gao HTS	HSV replic up	HSV replic up primary fold	PKD1 kinase inh	GALR2 ag
Cc1ccc(NC(=O)CSc2nc3ccccc3c(=O)n2CCCC(=O)NCCCN2CCOCC2)cc1	nt	nt	102	i	0.98	-4	nt
CN(CCc1nc2ccccc2[nH]1)Cc1nc(CC2CC2)no1	26	164	106	i	0.95	-2	nt
O=C(N[C@@H](Cc1ccccc1)C(=O)OCc1ccccc1)c1nc[nH]c1C(=O)N1CCN(c2ccccc2)CC1	nt	nt	102	i	0.71	nt	nt
COc1ccc(-c2cc(=O)oc3cc4occ(C)c4cc23)cc1	9	154	100	i	1.1	-1	0.2
O=C1OC(c2ccco2)=N/C1=C\c1ccc(-c2cccc(C(F)(F)F)c2)o1	22	131	111	?	nt	-8	-0.5
CSc1ncccc1C(=O)OCC(=O)c1cccc(Br)c1	nt	nt	102	i	1	-4	nt
CCC(CC)c1nnc(NC(=O)CN2C(=O)c3ccccc3C2=O)s1	nt	nt	101	i	0.93	-5	nt
Cc1ccccc1/C=N/NC(=O)Cn1cnc([N+](=O)[O-])n1	-32	116	nt	i	0.98	-6	-2.7
O=C(NCCc1nc2ccccc2[nH]1)c1ccc(Cl)c([N+](=O)[O-])c1	31	133	103	i	0.96	-2	-1.8
Nc1nc(C2CCCCC2)cs1	38	124	108	i	0.93	-9	-2.9
CCc1ccccc1N=C1SCC(=O)N1C	nt	nt	98	i	1	36	-0.3
COc1ccc(S(=O)(=O)NCc2ccc3c(c2)OCO3)cc1C(=O)O	33	43	99	i	0.97	-5	-0.5
CC(C)(C)OC(=O)NCCCC[C@H](NC(=O)c1nc[nH]c1C(=O)N1CCc2ccccc2C1)C(=O)OC(C)(C)C	nt	nt	84	i	0.85	nt	nt
CN1CCN(C(=O)c2ccc(CSc3nc4ccncc4n3Cc3ccc(F)cc3)cc2)CC1	0	122	96	i	1	-16	0.2
COC(=O)c1cc2sc(Cl)cc2n1CC(=O)N1CCCc2ccccc21	-30	116	102	i	1.1	-8	0.6
CCOc1cc(/C=N/n2cnnc2)ccc1OS(=O)(=O)c1ccc(C)cc1	nt	nt	98	i	0.94	2	nt
CC(C)c1ccc(NC(=O)c2cnn(-c3ccccc3)c2NC(=O)c2ccco2)cc1	nt	nt	93	i	0.73	-3	-0.9
CC(C)Cn1c(N)c(C=O)c(=O)[nH]c1=O	nt	nt	102	i	0.9	2	nt
Cc1ccccc1N1CCN(C(=O)c2ccc(Oc3ccc(C(F)(F)F)cn3)cc2)CC1	14	70	102	i	1.1	-11	-0.3
O=C(CCCN1C(=O)/C(=C/c2ccccc2Cl)SC1=S)NNC(=O)c1cccnc1	nt	nt	97	i	1	nt	nt
COc1ccccc1CNC(=O)C[n+]1ccccc1	14	139	100	i	0.94	2	-4.4
COC(=O)Nc1nc(-c2ccc(F)cc2)c(C)s1	nt	nt	98	i	0.96	-4	nt
Cc1ccc(-n2cc(-c3ccc([N+](=O)[O-])cc3)[nH]c2=S)c(C)c1	nt	nt	96	i	1.1	-8	0.3
O=C(N/N=C/c1cccc([N+](=O)[O-])c1)c1cc(-c2ccccc2)nc2ccccc12	11	108	104	i	0.82	-3	0.7
Cc1noc(C)c1C(=O)NC(C)c1ccc(Cl)cc1Cl (configuration not stated)	-43	112	105	i	1.1	6	nt

Remaining list, next part:
SMILES	INS promoter inh	INS promoter inh cell count	RGS16-Gao HTS	HSV replic up	HSV replic up primary fold	PKD1 kinase inh	GALR2 ag
CCCN1C(=O)c2ccc(C(=O)Nc3cc(C)on3)cc2C1=O	16	54	102	i	1.1	0	0.9
Cc1cc2c(c(=O)n1Cc1ccco1)C(c1ccccc1)C(C#N)=C(N)O2 (configuration not stated)	-40	95	107	i	0.91	-2	-1.9
Clc1ccccc1-c1nnc(-c2ccc3c(c2)OCO3)o1	25	122	106	i	0.9	1	nt
CN(CCc1ccccn1)C(=O)Nc1ccc(C(C)(C)C)cc1	nt	nt	99	i	0.84	nt	nt
Cn1c(=O)c(C(=O)COc2ccc(C#N)cc2)c(N)n(Cc2ccccc2)c1=O	nt	nt	101	i	1.3	-2	nt
CCCn1ncc(CN2CCN(Cc3ccsc3)C(CCO)C2)c1C (configuration not stated)	nt	nt	105	i	1.2	-3	nt
Cc1ccc(N2CCN(C(=O)N3CCCC3)CC2)cc1C	-7	182	81	i	0.82	-7	-0.3
C=CCSc1nc(=O)n2cccc(C)c2n1	59	112	104	i	0.96	12	0.8
CCCn1c(C)nc2c(c1=O)c1nc3ccccc3nc1n2CCc1ccccc1	-3	170	nt	nt	nt	-1	-3.1
CCN(CCNC(=O)C1CCN(S(C)(=O)=O)CC1)c1ccccc1	14	127	119	i	0.82	-6	-2.0
CSc1[nH]c(=O)c(C(=O)O)cc1C#N	-3	150	74	i	0.98	-1	-1.8
O=C1C2C3C=CC(C3)C2C(=O)N1CCN1CCN(S(=O)(=O)c2ccc3ccccc3c2)CC1 (configuration not stated)	-75	100	109	i	1	-6	-2.4
CCCCn1c(SC(C)C(N)=O)nc2cc(C(=O)OC)ccc2c1=O (configuration not stated)	-7	99	96	i	0.99	10	-0.6
COCCNC(=O)C(=O)NNC(=O)c1ccccc1OC	-8	74	107	i	1	-2	nt
Cc1ccc(S(=O)(=O)/N=C(\c2ccccc2)N(C)S(=O)(=O)c2ccc(C)cc2)cc1	6	77	100	i	0.92	20	-1.5
CS(=O)(=O)N1CCN(c2ccccc2NC(=O)c2cc(Br)ccc2Cl)CC1	nt	nt	103	i	1.1	3	nt
COc1cc(NC(=O)c2ccc(Cl)cc2)c(OC)cc1NC(=O)CN1CCCCC1	nt	nt	101	i	0.76	6	nt
CC1(C)OC(=O)C(=CNc2cccc(C(=O)O)c2)C(=O)O1	45	139	58	i	0.94	4	0.6
O=C(CN1N=C(c2ccc(Cl)cc2)CCC1=O)NCc1cccs1	9	81	104	i	0.87	3	nt
CCOC(=O)N/N=C/c1ccc(OCCSc2ccc(Cl)cc2)c(OC)c1	26	170	97	i	0.87	-9	-0.6
c1ccc2c(c1)CCCC2C1=NCCN1 (configuration not stated)	33	95	98	i	0.89	-1	-0.7
FC(F)(F)c1nc(Sc2ncccc2C(F)(F)F)n[nH]1	nt	nt	98	i	1	nt	nt
COc1cccc(NC=C2C(=O)OC(C)(C)OC2=O)c1	9	108	105	i	0.8	-10	-1.9
CCOCc1nnc(NC(=O)c2cccc(OC)c2)s1	-32	61	101	i	1.1	-4	nt
NC(=O)c1cccn(Cc2ccc(C(F)(F)F)cc2)c1=O	-18	106	102	i	1.1	1	nt

Ordered by molecular weight (rising): some entries from above.
SMILES	INS promoter inh	INS promoter inh cell count	RGS16-Gao HTS	HSV replic up	HSV replic up primary fold	PKD1 kinase inh	GALR2 ag
Cc1[nH]c(=O)c(C#N)c(C)c1[N+](=O)[O-]	nt	nt	95	i	1	nt	nt
CSc1[nH]c(=O)c(C(=O)O)cc1C#N	-3	150	74	i	0.98	-1	-1.8
CCc1ccccc1N=C1SCC(=O)N1C	nt	nt	98	i	1	36	-0.3
O=C(CSc1nnnn1-c1ccc(O)cc1)c1ccc(F)cc1	nt	nt	98	i	0.98	nt	nt
COc1ccc(C)cc1NC(=O)c1cc2cc3ccc(C)cc3nc2o1	-42	100	98	i	0.99	-4	-0.1
CSc1ncccc1C(=O)OCC(=O)c1cccc(Br)c1	nt	nt	102	i	1	-4	nt
C=CCn1c(SCC(=O)NC2CCS(=O)(=O)C2)nc2scc(C3CC3)c2c1=O (configuration not stated)	nt	nt	97	i	0.81	-13	-1.0

Going on with the list:
SMILES	INS promoter inh	INS promoter inh cell count	RGS16-Gao HTS	HSV replic up	HSV replic up primary fold	PKD1 kinase inh	GALR2 ag
CCc1ccc2c(c1)c(N=NC1=NC(=O)CS1)c(O)n2C	79*	61*	101	nt	nt	-3	1.1
C=CCn1c(SCC(=O)Nc2ccccc2OC)nnc1-c1ccccn1	-32	66	96	i	0.78	-11	-1.5
O=C(CSc1ncn[nH]1)Nc1cccc2ccccc12	nt	nt	103	i	1	-5	-2.0
O=C(NCCc1cccs1)c1ccc(Cl)cc1	nt	nt	102	i	1	nt	nt
CC(C)CN1C(=O)c2ccc(NC(=O)c3ccccc3F)cc2C1=O	-24	101	107	i	0.91	6	-1.2
S=c1[nH]nc(Cc2noc3ccccc23)n1-c1ccccc1	nt	nt	100	i	1.2	1	nt
S=C(Nc1cccc(Cl)c1)N1CCOCC1	0	118	103	i	0.85	-7	-2.6
Cc1ccc(SCC(=O)OCn2nnc3ccccc3c2=O)cc1C	17	90	94	i	1.1	-6	-0.2
CCn1c(-c2cc(Br)ccc2O)n[nH]c1=S	-36	61	nt	i	0.92	-3	-1.4
C1=C(CCNCC2CC2)CCCC1	-29	135	99	i	0.89	-10	-2.7
CCOC(=O)/C(C#N)=N\Nc1cc(Cl)ccc1OC	nt	nt	98	i	0.76	nt	nt
N#CCc1nc2ccccc2c(=O)[nH]1	nt	nt	101	i	1.1	nt	nt
c1ccc(OCCCc2nc(-c3ccncc3)no2)cc1	-5	111	100	i	1	-10	-1.8
COc1ccc(S(=O)(=O)NC(N)=NCCc2ccccc2OC)cc1	nt	nt	93	i	1	-1	nt
O=C(O)/C=C\C(=O)Nc1ccc(N2CCN(c3ccc(Cl)c(Cl)c3)CC2)cc1	nt	nt	53	i	0.85	-4	nt
N#Cc1ccc(OCC(=O)N/N=C(\CCC(=O)O)c2cccs2)cc1	-136	96	104	i	1.1	-10	nt
CN1CCN(c2ccc(Cl)cc2NC(=O)c2ccc(S(=O)(=O)N3CCCCCC3)cc2)CC1	-36	87	103	i	0.75	0	2.1
